# Bioassay records: PubChem, National Center for Advancing Translational Sciences (NCATS)
# VACV Venus inh – vaccinia inhibition (Venus reporter); Vaccinia virus Venus reporter expression, fluorescence; Potency, µM (doses to about 36.5 µM), for inactives: at the top dose activity change, negative = inhibition, most hits filed as inhibitors; 0.46% of 330,000 active; AID 720580; active means well fitted inhibition curve with a large enough effect; inconclusive means small, poorly fitted or top-dose-only effect; inactive means no such curve, though single readings can be large or run the other way; tested in A549 cells; further: nearly all actives have a fitted effect of over 30% in size; inactives centre near -10
# Vaccinia mCherry – inhibitors of vaccinia virus infection (mCherry reporter signal); Potency, µM (series often up to 36.5 µM), for the others: top-dose activity change, negative = inhibition, usual class: inhibitors; 0.63% of 310,000 active; Vaccinia virus mCherry reporter infection, fluorescence; about a quarter of the inactives have no number; active = well fitted inhibition curve with a large enough effect; inconclusive = small, poorly fitted or top-dose-only effect; inactive = no such curve, though single readings can be large or run the other way; tested in A549 cells; further: nearly all actives have a fitted effect of over 35% in size; inactives centre near -10
# * hit, by the source's call; i = inactive; ? = inconclusive; . = no result given; & = joins results of further samples; [ ] = another dose, or the depositor's remark. On the % scale 0 is the no-effect control and ±100 the full control effect; potency means the concentration at half of the fitted maximal effect. This is a random part of the collection. About 0.87% of those tested had a hit in this group.
# Start of the listing, in advance:
no.	molecule	VACV Venus inh	Vaccinia mCherry
1	Cc1c(N2C(=O)/C(=C\C3CC=CCC3)SC2=S)c(=O)n(-c2ccccc2)n1C (stereo not given)	-2%	-15%
2	NC1CONC1=O (stereo not given)	-17%	i
3	COCCNC(=O)c1cc2c(-c3ccccc3F)nn(C)c2s1	-16%	-9%

# Results, previewed entries included:
no.	molecule	VACV Venus inh	Vaccinia mCherry
1	Cc1c(N2C(=O)/C(=C\C3CC=CCC3)SC2=S)c(=O)n(-c2ccccc2)n1C (stereo not given)	-2%	-15%
2	NC1CONC1=O (stereo not given)	-17%	i
3	COCCNC(=O)c1cc2c(-c3ccccc3F)nn(C)c2s1	-16%	-9%
4	COc1ccccc1C(=O)n1nc(-c2ccc(Cl)cc2)nc1N	-21%	?
5	Cc1cc(OC(C)C(=O)Nc2ccccc2C(=O)N2CCCC2)ccc1Cl (stereo not given)	-6%	-1%
6	CCOC(=O)C(=O)NNc1ccc(Cl)cc1	-1%	-7%
7	CC(On1c(-c2ccccc2)nc2ccc(Cl)cc21)C(=O)O (stereo not given)	-11%	i
8	CC[C@H](C)[C@H](NC(=O)c1ccc(Cl)cc1)C(=O)OCC(=O)c1c(N)n(C)c(=O)n(C)c1=O	-17%	i
9	CC(=O)n1cc([C@@H]2C=C(C(=O)NCc3ccccc3)O[C@H](OCc3ccc(CO)cc3)C2)c2ccccc21	-24%	?
10	N#CC1(c2ccccc2)CCCN1C(=O)c1ccccc1Cl (stereo not given)	-22%	.
11	O=C(Nc1cccc(-c2nc3ccccc3[nH]2)c1)c1ccccn1	?	-27%
12	Cc1ccc(S(=O)(=O)NCc2cn3ccsc3n2)c(C)c1	-4%	.
13	CC(NC(=O)COC(=O)c1ccccc1Nc1ccccc1)c1ccccc1 (stereo not given)	-17%	-3%
14	Cc1cc2nc(-c3ccc(SCC(=O)Nc4ccc(S(=O)(=O)N5CCCC5)cc4)nc3)[nH]c2cc1C	-4%	-17%
15	COc1ccc(O)c(/C=N/Nc2nc(Nc3ccccc3)nc(-n3nc(C)cc3C)n2)c1	10µM*	.
16	O=C(CNC(=O)c1cccs1)OCC(=O)c1ccc(Br)cc1	-14%	-18%
17	Cc1ccc(C(=O)N/C(=C/c2ccc(-c3cc(C(F)(F)F)ccc3Cl)o2)C(=O)NCc2cccnc2)cc1	?	?
18	CCOC(=O)c1c(NC(=S)NC)sc2c1CCCC2	?	i
19	COc1ccc(/C=N\NC(=O)c2ccc(-c3ccccc3)cc2)c(OC)c1OC	-22%	-15%
20	CCn1cc(C(=O)OCC(=O)Nc2ccc(C)c(Cl)c2)c(=O)c2ccc(C)nc21	3%	6%
21	CN1C(C)(C)CC(NC(=O)CCC(=O)NC2CC(C)(C)N(C)C(C)(C)C2)CC1(C)C	-8%	-13%
22	Cc1ccc(CNc2ccc(-c3nc(C(C)C)no3)cc2[N+](=O)[O-])cc1	-4%	-10%
23	Cc1ccc(N2CCN(C(=O)c3nn(C)c4c3CS(=O)(=O)c3ccccc3-4)CC2C)cc1 (stereo not given)	-12%	-11%
24	CCn1nnc2cc(C(=O)Nc3cc(C)ccc3C)ccc21	-14%	-12%
25	O=C(/C=C/c1ccco1)N1CCN(S(=O)(=O)c2cccs2)CC1	7%	0%
26	CC1CCc2nn(CC(=O)NCc3ccco3)cc2C1 (stereo not given)	-11%	-11%
27	CCOc1ccccc1NC(=O)COC(=O)c1cc[n+]([O-])cc1	13%	i
28	COc1cccc(-c2ccc3c(c2)N(Cc2cccc(F)c2)C(=O)C(C)S3)c1 (stereo not given)	-3%	-5%
29	CCc1ccc(C(=O)Nc2cccc(-c3nn[nH]n3)c2)s1	-9%	-1%
30	C=CCn1c(CNC(=O)c2ccco2)nnc1SCC(=O)c1ccc(F)cc1	-6%	-12%
31	COc1ccc(/C=C2\SC(=S)N(CCC(=O)NC3CCCC3)C2=O)cc1OC	-5%	-17%
32	COc1ccc(C)cc1NC(=O)N1CCCc2ccccc21	-22%	-1%
33	COC(=O)c1ccccc1NC(=O)CNC(=O)c1ccco1	-5%	.
34	CC(C)(C)OC(=O)N1CCC(c2c(C(=O)NCc3ccc4c(c3)OCO4)cnn2-c2ccccc2Cl)CC1	-8%	-8%
35	COCCNC(=O)c1cc(-c2ccccc2)n(Cc2cc(C)no2)n1	-17%	i
36	C=C(C)C(Cc1c(OC)ccc(C(=O)/C=C/c2ccc(O)cc2)c1O)OO (stereo not given)	7%	4%
37	CCN(CC)CCOC(=O)C(c1ccccc1)C1CCCCC1 (stereo not given)	?	?
38	Cc1cccn2c(=O)nc(SCC(=O)c3ccc(Cl)cc3)nc12	0%	-27%
39	O=C(c1ccc2c(=O)n3c(nc2c1)CCCCC3)N1CCN(c2ccccc2F)CC1	-27%	i
40	ClCCn1cnc2c(SCc3ccccc3)ncnc21	31%[activator]	?
41	O=C1NC(=O)C(CCOc2ccccc2)(CCc2ccccc2)C(=O)N1	-9%	-4%
42	CCCN(CC(=O)Nc1ccccc1C)C(=O)c1cccc(-n2cnnn2)c1	-6%	i
43	N#C/C(=C/c1ccc(-c2ccc(C(=O)O)c(Cl)c2)o1)C(=O)NCC1CCCO1 (stereo not given)	-6%	-12%
44	Cc1ccc([C@@H]2[C@@H]3C(=O)N(C)C(=O)[C@@H]3[C@]3(C)C(=O)N(CCO)CC(=O)N23)o1	-14%	i
45	O=C(O)CCCC(=O)OCc1c(-c2ccccc2)ncc2ccccc12	-18%	-3%

# Down the list, from the results shown.
# Compounds 30 to 34 in VACV Venus inh, in turn: -6%, -5%, -22%, -5%, -8%
# Compounds 30 to 34 in Vaccinia mCherry, in turn: -12%, -17%, -1%, ., -8%

# Other structures
no.	molecule	VACV Venus inh	Vaccinia mCherry
46	O=C(CCN1C(=O)C2C3C=CC(C3)C2C1=O)N1CCCCC1 (stereo not given)	-4%	i
47	Cc1cc(C)cc(N2CC(C(=O)Nc3cc(C)on3)CC2=O)c1 (stereo not given)	-3%	-29%
48	Cc1onc(-c2ccccc2Cl)c1C(=O)Nc1cccc(-c2cn3cccnc3n2)c1	-12%	-13%
49	CCOC(=O)C1CCCN(C(=O)Cn2ncc3c([nH]c4ccccc43)c2=O)C1 (stereo not given)	-8%&-8%	-18%&-13%
50	COc1ccc(/C=N/S(=O)(=O)c2ccccc2)cc1OC	-5%	16%
51	Cc1cccc(NC(=O)c2ccc(S(=O)(=O)N(C)C)cc2)c1	-21%	-14%
52	CC1(C)CC(=O)N(c2cc(Cl)cc(Cl)c2)C(=O)C1	-2%	i
53	COc1cc(/C=C/C(=O)c2ccc([N+](=O)[O-])o2)ccc1O	?	?
54	C[C@@H]1CN([C@@H](C)CO)C(=O)c2cc(-c3cccnc3)cnc2O[C@H]1CN(C)C(=O)c1cccc(F)c1	-11%	-1%
55	CC(=O)Nc1ccc(S(=O)(=O)N(C)CC(=O)OCC(=O)c2ccc[nH]2)cc1	-8%	i
56	CC(CCc1ccccc1)NC(=O)c1ccc2nc(N3CCOCC3)sc2c1 (stereo not given)	4%	-3%
57	COc1ccc(/C=C/c2nnc(NC(=O)CSc3ccc(C)cc3)s2)cc1	-21%&9%	-4%&-1%
58	COc1ccc(-n2c(=O)c3sc4ccccc4c3n(Cc3ccccc3C)c2=O)cc1OC	1%	3%
59	COc1cc(N2CCCC2)ccc1C=O	0%	-3%
60	COc1ccc(OCC(=O)NNC(=O)Cc2coc3cc(OC)ccc23)cc1	-19%	-3%
61	COc1ccc(/C=C/C(=O)O)cc1S(=O)(=O)N1CCCc2ccccc21	-10%	-8%
62	CC(=O)N1CCN(C(=O)c2cc(C)nc3ccccc23)CC1	-11%	-10%
63	Cc1ccc(S(=O)(=O)N2CCN(c3nc(-c4cncn4C)nc4ccccc34)CC2)cc1	-28%	-8%
64	COc1ccc(-n2ccc(=O)c3c2CCCC3=O)cc1	-14%	.
65	CCOc1ccc(C(=O)N[C@H](C(=O)Nc2ccc(OC)c(S(=O)(=O)N3CCOCC3)c2)C(C)C)cc1	?	-14%
66	COC(=O)CSc1nc2ccc(NC(C)=O)cc2s1	-15%	i
67	CCCc1nc(SCc2ccc(OCC)cc2)n[nH]1	-13%	i
68	COC(=O)c1ccc(NC(=O)CCS(=O)(=O)c2ccc(Br)s2)cc1	?	-9%[7.34 µM]
69	Cc1ccc(OCc2cc(C(=O)NC(C)Cc3cnccn3)no2)cc1C (stereo not given)	-7%	-13%
70	CC(C)(C)c1ccc(-n2ncc3c2CCCC3NC(=O)CCCn2cncn2)cc1 (stereo not given)	-15%	-10%
71	CCN(CC)S(=O)(=O)c1cccc(NC(=O)c2ccc(SC)cc2OC)c1	-23%	?
72	CCCCn1nc2cc(C(=O)NCc3ccc4c(c3)OCO4)ccc2c1OCC	-19%	i
73	O=c1c(O)cccc2cc(O)c(O)c(O)c12	2%	-22%
74	CCN1CCN(C(=S)c2ccc(OCC(=O)Nc3ccc(OC)cc3)cc2)CC1	-18%	.
75	O=C(CSc1nc(-c2ccccc2)cs1)Nc1ccccc1[N+](=O)[O-]	-17%	i
76	CC(C)C[C@H]1COc2cc(N3CCC[C@H]3CO)ccc2S(=O)(=O)N1	4%	-4%
77	CCN(CC)C1CCN(C(=O)CCn2nnnc2CN2CCOCC2)C1 (stereo not given)	-10%	i
78	CN(Cc1c(F)cccc1Cl)C(=O)c1ccc(NS(=O)(=O)c2ccc3[nH]c(=O)[nH]c3c2)cc1	-11%	-17%
79	C#CCNC(=O)c1cccn1-c1ncc(C(F)(F)F)cc1Cl	-6%	-13%
80	COc1ccc(-c2cc(C(=O)N3CC4(C)CC3CC(C)(C)C4)no2)cc1OC (stereo not given)	-10%	-4%
81	CC(=O)Nc1ccc(/C(C)=N/NC(=O)C2CC2c2ccccc2)cc1 (stereo not given)	-2%	-4%
82	Fc1ccccc1Cc1noc(CN2CCCC(CN3CCOCC3)C2)n1 (stereo not given)	-12%	-2%
83	C=CCNC(=O)c1cnc(-c2ccccc2)nc1-c1ccccc1	-13%	-15%
84	Cc1ccc(-n2c(N)c(C(=O)NCc3cccnc3)sc2=S)cc1	-18%	-14%
85	N#C/C(=C\c1ccccc1)C(=O)Nc1cc(S(=O)(=O)N2CCOCC2)ccc1N1CCCC1	-12%	-8%
86	CCOC(=O)C1CCC(CNCc2ccccc2C)CC1 (stereo not given)	20%	-9%
87	COc1ccc(Cc2nnc(Nc3ccccc3OC)[nH]c2=O)cc1	-16%	i
88	O=C(O)c1ccc(NS(=O)(=O)c2ccc3c(c2)OCCCO3)cc1	-15%	-2%
89	Cc1ccc(Nc2nc3ccc(C)cc3nc2-n2nc(C)cc2C)c(C)c1	-12%	-8%
90	CCc1nnc(NC(=O)CSc2nnc(-c3ccoc3C)n2-c2ccc(C)cc2)s1	-20%	-18%
91	N#Cc1c(N)nc2c3c(sc(=N)c2c1N)NC(=O)CC3c1ccccc1 (stereo not given)	-21%	-20%
92	CCCCNC(=O)CSc1nc2nc(C)c(Cc3c(F)cccc3Cl)c(C)n2n1	7%	8%
93	CCOC(=O)C(NC(=O)Nc1ccc(F)cc1F)(Oc1ccccc1)C(F)(F)F (stereo not given)	-1%	-2%
94	Cn1c(=O)[nH]c(=O)c2c1nc(NC1CCCCC1)n2CCO	-19%	-10%
95	Cn1c(SCc2nc3ccccc3s2)nnc1-c1cccs1	1%	.
96	CCN(CC)C(=O)C1=C(C)N(Cc2ccc(OC)cc2)C(=O)C(CC(=O)NCC2CCCCC2)C1 (stereo not given)	-25%	-27%
97	Cc1ccc(-c2noc(-c3ccccc3NC(=O)c3ccccc3)n2)cc1	-10%	-12%
98	Oc1ccc(-c2csc(-c3c[nH]c4ccccc34)n2)c(O)c1	?	?
99	C=C(C)CNC(=S)NNC(=O)CCn1c2ccccc2c2ccccc21	-14%	-5%
100	COc1ccc(CCC(=O)Nc2nccs2)cc1OC	-1%	11%
101	COC(=O)N/N=C(\C)c1ccc(Br)cc1	-9%	.
102	COc1ccc([C@H]2CC(=O)C=C(c3cccc(Cl)c3)C2)cc1	-15%	-4%
103	CCOc1ccc(CCNC(=O)C2CCN(S(=O)(=O)N3CCOCC3)CC2)cc1OCC	-9%	-4%
104	O=C(COc1ccc(F)cc1)N(c1ccccn1)C1CCCCC1	-4%	i
105	O/N=C1\CCCc2c1nc(-c1ccccc1F)n2O	-2%	0%

# Next entries
no.	molecule	VACV Venus inh	Vaccinia mCherry
106	CCC(C)NC(=O)C1CCN(S(=O)(=O)c2ccc3c(ccn3CC)c2)CC1 (stereo not given)	-4%	-10%
107	COc1ccc(Cl)cc1S(=O)(=O)N(C)CC(=O)NCc1ccc2c(c1)OCO2	-4%	-6%
108	Cc1ccc(S(=O)(=O)N2CCOCC2)cc1NC(=O)c1cc2ccccc2oc1=O	-9%	-11%
109	O=c1[nH][nH]c2c1[C@H](c1ccc(Cl)cc1)O[C@H](C1CC1)C2	-7%	2%
110	Cc1ccc(S(=O)(=O)Nc2cc(S(=O)(=O)N3CCCCC3)ccc2N2CCOCC2)cc1	2%	i
111	Cc1cc(C)c(NC2=NCCCS2)c(C)c1	-10%	i
112	CC#C[C@]1(O)CC[C@H]2[C@@H]3CCC4=CC(=O)CCC4=C3[C@@H](c3ccc(N(C)C)cc3)C[C@@]21C	-14%	-6%
113	CC(C)(C)N(Cc1ccccc1)C(=O)CCc1ccccc1	-11%	-1%
114	CC(C)(C)c1nc(SCC(=O)Nc2ccc(N3CCOCC3)cc2)c2ccccc2n1	-23%	?
115	CCC(C)NC(=O)CN1C(=O)CC(C)(C)S(=O)(=O)c2ccccc21 (stereo not given)	0%	-6%
